Bioassay records as filed in PubChem.
HCMV NEC inh = inhibitors of HCMV UL50-UL53 interaction, biochemical, HTRF | HCMV UL50-UL53 nuclear egress complex (human cytomegalovirus) | normalized percent inhibition | inhibition, % (test concentration not listed) | 190,000 tested, 0.15% active | AID 1918969, 2023;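 active = both replicates at 50% or more, plus weaker picks with an unusually low signal ratio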;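 also: stock transfer was 100 nL into about 20 µL; 0% = negative control wells and 100% = wells with untagged competitor protein; inactives centre near -12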
Sa growth inh = S. aureus growth inhibition at 42 and 30 °C, primary screen, LtaS inhibitor project, RN4220, two temperatures; OD600, 20 h, 42 °C; stronger effect = lower value; 170,000 tested, 0.53% active; AID 720641, 2013; relative growth, % (concentration not given with the values);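 active = growth at 42 °C up to 50% and 20 or more points under that at 30 °C, or under 10% at both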;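 also: 300 nL library stock went into each well; scaled to the means of positive and negative controls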
GIV Gai3 FP = inhibitors of GIV peptide binding to Galpha-i3, primary screen, biochemical, fluorescence polarization, FITC-GIV GBA peptide, rat Galphai3. Guanine nucleotide-binding protein G(i) subunit alpha-3 (Rattus norvegicus), P08753. 90 min; stronger effect = lower value; scaled: aluminum fluoride 0%, vehicle 100%. percent of control (FP), % (no concentration beside the values). 210,000 tested, 0.42% active;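 active = replicate mean at 85% of control or lower, very high polarization wells dropped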;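 also: wells of about 15 µL received 100 nL stock; the first replicate is given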
Target sequence (P08753 whole entry, looked up): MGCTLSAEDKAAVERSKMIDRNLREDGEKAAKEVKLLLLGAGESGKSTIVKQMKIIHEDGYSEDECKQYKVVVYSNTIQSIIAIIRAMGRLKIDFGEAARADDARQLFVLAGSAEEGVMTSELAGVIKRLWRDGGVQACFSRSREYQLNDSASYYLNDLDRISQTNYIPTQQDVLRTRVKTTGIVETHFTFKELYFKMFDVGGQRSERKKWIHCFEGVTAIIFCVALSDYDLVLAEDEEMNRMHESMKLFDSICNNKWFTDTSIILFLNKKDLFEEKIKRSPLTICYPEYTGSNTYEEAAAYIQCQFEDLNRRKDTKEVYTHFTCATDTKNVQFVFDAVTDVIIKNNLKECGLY
Sa growth inh second temp = also measured in Sa growth inh; calls as there; relative growth, %; measured here: growth at 30 °C;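 optical density after 20 h as mean of two plates; 100% = untreated growth and lower means inhibition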
* = called active by the depositor; · = no result given; & = joins results of further samples.

nr | Structure | HCMV NEC inh | Sa growth inh
1 | Cc1cc(C)c2nc(NC3=NCCCCC3)sc2c1 | 6 | 105
2 | O=C(Nc1ccn(Cc2ccccc2)n1)c1ccccc1 | 10 | 111
3 | C=CCNCc1ccc(-c2cccc(C(F)(F)F)c2)o1 | -6 | ·
4 | COc1ccc(OCC(=O)N(Cc2nc(-c3ccccc3)no2)C2CCCCC2)cc1 | · | 104
5 | CN(C)S(=O)(=O)c1cc(C(=O)NCc2ccco2)c(Cl)cc1Cl | -1 | 118
6 | c1cncc(C2SCCCS2)c1 | -4 | 99
7 | O=C(O)c1ccccc1OCC(=O)N1CCCC1 | -4 | 71
8 | COc1cccc(S(=O)(=O)N2CCN(Cc3ccc4c(c3)OCO4)CC2)c1 | -32 | 93
9 | Cc1ccc(C)c(Cn2nnc3c2nc(C)n2c(=O)[nH]nc32)c1 | -16 | 81
10 | CCOC(=O)c1c(C)[nH]c(C)c1S(=O)(=O)N1CCCC(C(=O)Nc2ccc(OC)c(OC)c2)C1 (stereo not given) | · | 99
11 | Cc1cc(C(=O)Cn2cnnc2C#N)c(C)n1-c1ccc(OC(F)(F)F)cc1 | -12 | 93
12 | COc1ccccc1C(=O)Oc1nnc2c3ccccc3cnn12 | -28 | 92

nr | Sa growth inh second temp | GIV Gai3 FP
1 | 92 | ·
2 | 103 | 104
3 | · | 100
4 | 84 | 99
5 | 86 | ·
6 | 89 | 106
7 | 92 | ·
8 | 83 | 109
9 | 87 | 105
10 | 88 | 98
11 | 88 | ·
12 | 70 | 100

More entries
nr | Structure | HCMV NEC inh | Sa growth inh
13 | Cc1ccc(NC(=O)Cn2c(C)c3cnn(-c4ccccc4)c(=O)c3c2C)cc1 | · | 89
14 | O=C1C=CC(=O)N1c1ccccc1F | -7 | 104
15 | CC(C)C(NC(=O)c1ccc(F)cc1)C(=O)Oc1ccc(F)cc1 (stereo not given) | -34 | 105
16 | CC1CCCN(C(=O)CCNS(=O)(=O)c2ccc3c(c2)c(=O)n(C)c(=O)n3C)C1 (stereo not given) | · | 102
17 | CC(C)(C)C(=S)Nc1cccc(Cl)c1 | 8 | 109
18 | O=C(NCc1ccc2c(c1)CCN2C(=O)c1ccncc1)c1ccccc1Br | · | 137
19 | COc1ccc(NC(=O)Cn2c(=O)n(-c3cc(C)cc(C)c3)c(=O)c3oc4ccccc4c32)cc1OC | · | 94
20 | CCC(=O)N1N=C(c2ccc(OC)cc2)CC1c1cn(-c2ccccc2)nc1-c1cccs1 (stereo not given) | 9 | 102
21 | CN(CC(=O)Nc1ccccc1Sc1ccccc1)C1CCS(=O)(=O)C1 (stereo not given) | -26 | 95
22 | O=C(NCC(=O)N1CCC(N2CCCCC2)CC1)C1CCCCC1 | -32 | 96
23 | C/C(O)=C/C(=O)Nc1cccc(C(F)(F)F)c1 | -38 | 116
24 | O=C(O)Cn1ccc2cc(S(=O)(=O)N3CCCCCC3)ccc21 | -6 | 114

nr | Sa growth inh second temp | GIV Gai3 FP
13 | 79 | 102
14 | 58 | 103
15 | 84 | ·
16 | 89 | 100
17 | 84 | 103
18 | 84 | 104
19 | 88 | 99
20 | 100 | 106
21 | 94 | ·
22 | 91 | 101
23 | 84 | ·
24 | 92 | 99

Further entries.
nr | Structure | HCMV NEC inh | Sa growth inh
25 | O=C(c1cccc2c1C(=O)N(Cc1cccnc1)C2)N1CCN(c2ccccc2)CC1 | 2 | 145
26 | Cc1nc2c(sc3nc4c(cc32)COC(C)(C)C4)c(=O)n1Cc1ccco1 | -20 | 114
27 | CCOC(=O)C1=C(C)N=c2s/c(=C\c3ccc(O)c(OCC)c3)c(=O)n2C1c1ccc(OC)cc1 (stereo not given) | -9 | ·
28 | O=C(O)CC1(O)C(=O)N(Cc2ccccc2)c2ccccc21 (stereo not given) | -15 | 93
29 | O=C(Nc1cccc(Cl)c1)n1ncc2cc(Cl)ccc21 | -17 | 86
30 | COCCCn1c(=N)c(C(=O)NCc2ccco2)cc2c(=O)n3ccccc3nc21 | -111 | 97
31 | O=C(O)COc1c(I)cc(Cl)c2cccnc12 | -43 | 33
32 | CC(C(=O)c1ccccc1)C1(O)C(=O)Nc2ccccc21 (stereo not given) | -25 | 106
33 | CN(C)CCNC(=O)C1=Cc2ccccc2OC1 | -85 | ·
34 | CC(C)n1ncc2c(C(=O)NC3=NCCS3)cc(-c3ccccc3)nc21 | -8 | 91
35 | CCN(C(=O)CSc1nc2ccccc2n1CC(=O)Nc1cccc(C#N)c1)c1ccccc1 | · | 113
36 | CCOC(=O)c1c(C)[nH]c(CCC(=O)Nc2c(C)cccc2CC)c1C | · | 97

nr | Sa growth inh second temp | GIV Gai3 FP
25 | 98 | 95
26 | 78 | 100
27 | · | 104
28 | 87 | ·
29 | 92 | 109&103
30 | 106 | 118
31 | 22 | ·
32 | 67 | 100
33 | · | 103
34 | 93 | ·
35 | 99 | 101
36 | 91 | 100

Next section:
nr | Structure | HCMV NEC inh | Sa growth inh
37 | CCOc1cc(/C=C2/NC(=S)NC2=O)ccc1OCc1ccc(Cl)cc1Cl | -27 | ·
38 | N/C(=N\S(=O)(=O)c1ccc(Br)cc1)c1ccc(Cl)cc1 | -14 | 84
39 | COc1ccc(CNC(=O)c2cnn(-c3ccc(F)cc3)c2-n2cccc2)cc1 | · | 101
40 | Cc1ccc2c(c1)cc(C(=O)NCc1ccc(F)cc1)n2C | -17 | 99
41 | CCCCCC(O)CCCC(=O)O (stereo not given) | 2&-26 | ·
42 | COc1ccc(N2C(=O)CSC23CCC(C)CC3)cc1 (stereo not given) | 7 | 114
43 | O=C(CN1CC(=O)Nc2ccccc21)Nc1ccc2c(c1)OCCCO2 | -11 | 89
44 | CCc1ccccc1NC(=O)CSc1nc(-c2ccccc2OC)nc2c1Cc1c(CO)cnc(C)c1O2 | · | 131
45 | Cc1cc(=O)oc2cc(OCC(=O)Oc3ccc4c(c3)OCO4)ccc12 | -38 | 103
46 | COc1ccccc1N(CN1CCCC1=O)C(=O)COc1ccccc1 | · | 109
47 | O=C(COCc1cc(-c2ccco2)on1)N1CCCc2ccccc21 | -32 | 96
48 | O=C(CSc1nc(-c2ccccc2)nc2c1CCCC2)N1CCOCC1 | -13 | 102

nr | Sa growth inh second temp | GIV Gai3 FP
37 | · | 103
38 | 86 | ·
39 | 97 | 105
40 | 95 | 102
41 | · | 101
42 | 105 | 110
43 | 93 | ·
44 | 85 | 104
45 | 80 | ·
46 | 90 | 102
47 | 79 | 107
48 | 88 | ·

Some of the entries so far, in transposed form:
(32) CC(C(=O)c1ccccc1)C1(O)C(=O)Nc2ccccc21 (stereo not given)
(33) CN(C)CCNC(=O)C1=Cc2ccccc2OC1
(34) CC(C)n1ncc2c(C(=O)NC3=NCCS3)cc(-c3ccccc3)nc21
(35) CCN(C(=O)CSc1nc2ccccc2n1CC(=O)Nc1cccc(C#N)c1)c1ccccc1
(36) CCOC(=O)c1c(C)[nH]c(CCC(=O)Nc2c(C)cccc2CC)c1C
(37) CCOc1cc(/C=C2/NC(=S)NC2=O)ccc1OCc1ccc(Cl)cc1Cl
(38) N/C(=N\S(=O)(=O)c1ccc(Br)cc1)c1ccc(Cl)cc1
(39) COc1ccc(CNC(=O)c2cnn(-c3ccc(F)cc3)c2-n2cccc2)cc1
(40) Cc1ccc2c(c1)cc(C(=O)NCc1ccc(F)cc1)n2C
(41) CCCCCC(O)CCCC(=O)O (stereo not given)
Assay by compound | 32 | 33 | 34 | 35 | 36 | 37 | 38 | 39 | 40 | 41
HCMV NEC inh | -25 | -85 | -8 | · | · | -27 | -14 | · | -17 | 2&-26
Sa growth inh | 106 | · | 91 | 113 | 97 | · | 84 | 101 | 99 | ·
Sa growth inh second temp | 67 | · | 93 | 99 | 91 | · | 86 | 97 | 95 | ·
GIV Gai3 FP | 100 | 103 | · | 101 | 100 | 103 | · | 105 | 102 | 101

(42) COc1ccc(N2C(=O)CSC23CCC(C)CC3)cc1 (stereo not given)
(43) O=C(CN1CC(=O)Nc2ccccc21)Nc1ccc2c(c1)OCCCO2
(44) CCc1ccccc1NC(=O)CSc1nc(-c2ccccc2OC)nc2c1Cc1c(CO)cnc(C)c1O2
(45) Cc1cc(=O)oc2cc(OCC(=O)Oc3ccc4c(c3)OCO4)ccc12
(46) COc1ccccc1N(CN1CCCC1=O)C(=O)COc1ccccc1
(47) O=C(COCc1cc(-c2ccco2)on1)N1CCCc2ccccc21
(48) O=C(CSc1nc(-c2ccccc2)nc2c1CCCC2)N1CCOCC1
Assay by compound | 42 | 43 | 44 | 45 | 46 | 47 | 48
HCMV NEC inh | 7 | -11 | · | -38 | · | -32 | -13
Sa growth inh | 114 | 89 | 131 | 103 | 109 | 96 | 102
Sa growth inh second temp | 105 | 93 | 85 | 80 | 90 | 79 | 88
GIV Gai3 FP | 110 | · | 104 | · | 102 | 107 | ·

Next results
nr | Structure | HCMV NEC inh | Sa growth inh
49 | CCOC(=O)c1c(C)oc2nc(CSc3nnc(-c4ccccc4)n3-c3ccc(Cl)cc3)nc(N)c12 | -7 | 108
50 | O=C(Nc1ccc2nc3n(c(=O)c2c1)CCCCC3)c1ccccc1Cl | -7 | 107
51 | CC(=O)Nc1ccc(C(=O)OCC(=O)N2CCCC2=O)cc1 | -24 | 79
52 | CCOCCCNC(=O)CN1C(=O)COc2ccc(S(=O)(=O)N3CCOCC3)cc21 | 16 | 94
53 | Cc1nc2c(-c3ccccc3)c(C)[nH]n2c(=O)c1Cc1ccc(Cl)cc1 | -7 | ·
54 | CCOC(=O)c1[nH]c(CSc2nncs2)c(C(=O)OCC)c1C | -19 | 91
55 | CN1CCc2c(sc(NC(=O)CSc3ccc(F)cc3)c2-c2nc3ccccc3s2)C1 | · | 107
56 | COC(=O)N1N=C(CC(C)C)CC1(O)C(F)(F)F (stereo not given) | · | 94
57 | N#CCc1nc2sc3c(c2c(=O)[nH]1)CCCC3 | -27 | 110
58 | O=C1/C(=C/c2ccc3c(c2)OCO3)SC(=S)N1CCC(=O)N1CCCc2ccccc21 | -17 | ·
59 | Cc1nc(COc2ccccc2Cl)sc1-c1ccnc(N)n1 | -1 | 89
60 | COc1ccc(Nc2cc(N3CCOCC3)c3nonc3c2[N+](=O)[O-])cc1 | -16 | ·

nr | Sa growth inh second temp | GIV Gai3 FP
49 | 95 | ·
50 | 88 | 103
51 | 80 | ·
52 | 91 | 110
53 | · | 95
54 | 86 | ·
55 | 99 | 164
56 | 95 | 101
57 | 78 | ·
58 | · | 106
59 | 64 | 107
60 | · | 109

Rewritten with two lines to a compound: part of the list above
Second line of a record – HCMV NEC inh, Sa growth inh, Sa growth inh second temp, GIV Gai3 FP
51) CC(=O)Nc1ccc(C(=O)OCC(=O)N2CCCC2=O)cc1
 : -24, 79, 80, ·
57) N#CCc1nc2sc3c(c2c(=O)[nH]1)CCCC3
 : -27, 110, 78, ·

Remaining list, next part
nr | Structure | HCMV NEC inh | Sa growth inh
61 | COc1ccc2nc3oc(C(=O)NCCCN4CCc5ccccc5C4)cc3cc2c1 | -101 | 132
62 | COC(=O)c1ccc(Nc2ncnc3c2cnn3C)cc1 | · | 97
63 | CC1CCN(c2c(C(=O)c3ccccc3)cnc3cc4c(cc23)OCCO4)CC1 | -7 | ·
64 | COc1cccc(CN(c2nc3nc(C)c(Cl)c(C)n3n2)S(=O)(=O)c2ccc(Cl)cc2)c1 | -13 | ·
65 | OC1(Cc2ccccc2)CCNCC1 | 21&-3 | 99
66 | CCn1cc(C(=O)NN)c(=O)c2cc(F)c(N3CCCC3)cc21 | · | 74
67 | COc1ccc(NC(=O)Cc2csc(COc3cccc(C)c3)n2)cc1OC | -26&-16 | 109
68 | O=S(=O)(Nc1ccc(Br)cc1)c1ccc2nc(-c3ccccc3)[nH]c2c1 | -8 | 117
69 | COc1ccc(-c2cc(C(F)(F)F)nc(SCCC(=O)Nc3ccccc3F)n2)cc1 | -36 | 84
70 | CCOc1ccc(CNc2ccc(N3CCN(Cc4ccccc4)CC3)cc2)cc1 | · | 111
71 | Cc1ccsc1CNC(=O)c1ccccc1C(=O)O | -7 | 98
72 | Cc1ccc(-c2nnn3c2nc(NCCc2ccccc2)c2ccccc23)cc1 | -42 | 112

nr | Sa growth inh second temp | GIV Gai3 FP
61 | 77 | 101
62 | 92 | 104
63 | · | 93
64 | · | 104
65 | 86 | 94&103
66 | 103 | 102
67 | 89 | 109&100
68 | 92 | 103
69 | 88 | 100
70 | 85 | 100
71 | 89 | 101
72 | 91 | 102

Going on with the list:
nr | Structure | HCMV NEC inh | Sa growth inh
73 | COc1ccc(-c2nnn(CC(=O)N(Cc3ccco3)C(C(=O)NCC3CCCO3)c3ccco3)n2)cc1 (stereo not given) | -35 | 98
74 | CCOC(=O)Cn1c(=O)oc2cc(S(=O)(=O)N3CCN(c4cccc(Cl)c4)CC3)ccc21 | -14 | 92
75 | CCc1c(C(=O)NC(C)C2CCCO2)csc1C (stereo not given) | -19 | 109
76 | CNS(=O)(=O)c1cccc(C(=O)OCC(=O)N(C)c2ccccc2)c1 | -10 | 90
77 | COC(=O)c1cc(OC(=O)c2ccc(=O)[nH]c2)cc(C(=O)OC)c1 | -11 | 106
78 | CC(=O)Nc1ccc2c(c1)nc(CN1CCCCC1)n2C(C)C | 13 | ·
79 | NC(=O)c1cccc(NC(=O)C(F)(F)F)c1 | -6 | 101
80 | COc1ccc(C2=Nc3ccccc3NC(C3CC3)=N2)cc1 | -6 | 106

nr | Sa growth inh second temp | GIV Gai3 FP
73 | 93 | 110
74 | 87 | 97
75 | 105 | 107
76 | 89 | ·
77 | 102 | ·
78 | · | 107
79 | 105 | 93
80 | 93 | 102
